Assay outcomes from PubChem BioAssay.
TRPML1 inh = qHTS for Inhibitors of the Human Mucolipin Transient Receptor Potential 1 (TRPML1) | Mucolipin-1 (Homo sapiens), Q9GZU1 | TRPML1-inducible cells, Ca2+ dye fluorescence, FDSS; active compounds read low; inhibition of EC80 agonist-evoked calcium signal | activity change, negative = inhibition, % (test concentration not listed) | actives 0.02% (n = 390,000); in the data active means activity change below about -50%; inconclusive means about -30% to -50%; inactive means above about -30%;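 further: stimulus is agonist 54-4 at its EC80 concentration; on the % scale 0 is the no-effect control and ±100 the full control effect; compound concentration not given in the record; the text of the record puts the active cut at -80%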
Target sequence (Q9GZU1 whole entry, looked up): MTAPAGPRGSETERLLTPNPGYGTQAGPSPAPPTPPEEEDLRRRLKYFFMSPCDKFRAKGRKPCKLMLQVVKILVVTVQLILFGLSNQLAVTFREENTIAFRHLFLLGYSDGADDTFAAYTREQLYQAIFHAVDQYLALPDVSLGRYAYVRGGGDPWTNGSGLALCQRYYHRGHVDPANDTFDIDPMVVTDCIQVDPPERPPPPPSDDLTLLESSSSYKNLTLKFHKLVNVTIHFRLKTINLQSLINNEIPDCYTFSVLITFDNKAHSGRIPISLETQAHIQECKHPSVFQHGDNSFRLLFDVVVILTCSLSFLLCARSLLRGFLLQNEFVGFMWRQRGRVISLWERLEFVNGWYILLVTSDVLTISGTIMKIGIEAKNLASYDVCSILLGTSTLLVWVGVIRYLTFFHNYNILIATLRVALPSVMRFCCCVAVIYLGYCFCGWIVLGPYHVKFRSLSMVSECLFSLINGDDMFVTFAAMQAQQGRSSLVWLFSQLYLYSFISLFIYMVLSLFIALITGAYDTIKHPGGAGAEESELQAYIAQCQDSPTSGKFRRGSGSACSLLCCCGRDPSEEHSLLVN
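Tet-induced TRPML1-DL cells loaded with Ca8 no-wash calcium dye were read kinetically on FDSS. Compound addition was followed by EC80 agonist 54-4 (4 uM final); inhibition was read over 110 s.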
Six1-Eya2 blk = qHTS Assay for Inhibitors of the Six1/Eya2 Interaction | actives 0.56% (n = 360,000) | AlphaScreen GST-Six1/His-Eya2 binding, biochemical; active compounds read low; control for the full effect not named in the record | AID 651725, 2012 | activity change, % (concentration not given with the values) | Homeobox protein SIX1 (Homo sapiens) + Protein phosphatase EYA2 (Homo sapiens), …; in the data active = activity change below about -65%; inconclusive = about -30% to -65%; inactive = above about -30%; further: on the % scale 0 is the no-effect control and ±100 the full control effect
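Compounds are tested against tagged Six1 and Eya2 proteins bridged by glutathione donor and nickel acceptor beads; after a one-hour incubation at 37 °C without light, AlphaScreen emission is recorded.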
CtBP-E1A inh = qHTS Assay for Inhibitors of the CtBP/E1A Interaction | CtBP / adenovirus E1A interaction (AlphaScreen) | AlphaScreen GST-E1A/His-CtBP binding, 1536-well; active compounds read low; control for the full effect not named in the record | activity change, % (test concentration not listed) | actives 0.49% (n = 340,000) | AID 651724, 2012; in the data active means activity change below about -65%; inconclusive means about -30% to -65%; inactive means above about -30%; further: on the % scale 0 is the no-effect control and ±100 the full control effect
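Protein mix (5X: 125 nM each GST-E1A, His-CtBP) was incubated with pinned compound 2 h at 37 deg C in dark, in 50 mM Tris pH 8.0 buffer with 300 mM NaCl. Glutathione donor and nickel acceptor beads followed; AlphaScreen signal read after 1 h.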
PINK1 expr mod = A Quantitative High throughput Screen to Identify Chemical Modulators of PINK1 Expression. Potency, µM (titrated, usually from 76.6 µM), for inactives: top-dose activation (PINK1 increase), hits mostly activators. actives 0.2% (n = 410,000). AID 624263, 2012. PINK1 immunofluorescence, high-content cytometry, 24 h; active = well fitted activation curve with a large enough effect; inconclusive = small, poorly fitted or top-dose-only effect; inactive = flat fitted curve, though single readings scatter; cell line not stated here;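 further: potency means the concentration at half of the fitted maximal effect; % of control where 0% means no effect; nearly all actives have a fitted effect of over 65% in size; a mitochondrial uncoupler was the plate control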
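Cells are seeded, rested 12 hours, then given compound at five concentrations or DMSO for 24 hours. After fixation, blocking and antibody staining, PINK1 amount and mitochondrial localization are scored; CCCP serves as control.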
D2 agonist = Beta-Arrestin HTS for Positive Allosteric Modulators of the Human D2 Dopamine Receptor: Agonists | D(2) dopamine receptor (Homo sapiens), P14416 | DiscoveRx PathHunter D2 beta-arrestin, luminescence, 90 min; 100% = 57 uM dopamine signal | activation, % (concentration not given with the values) | actives 0.084% (n = 360,000); in the data active = activation above about 40%; inconclusive = about 15% to 40%; inactive = below about 15%; further: compound concentration not given in the record; the text of the record calls up to 30% inactive
Target sequence (P14416 whole entry, looked up): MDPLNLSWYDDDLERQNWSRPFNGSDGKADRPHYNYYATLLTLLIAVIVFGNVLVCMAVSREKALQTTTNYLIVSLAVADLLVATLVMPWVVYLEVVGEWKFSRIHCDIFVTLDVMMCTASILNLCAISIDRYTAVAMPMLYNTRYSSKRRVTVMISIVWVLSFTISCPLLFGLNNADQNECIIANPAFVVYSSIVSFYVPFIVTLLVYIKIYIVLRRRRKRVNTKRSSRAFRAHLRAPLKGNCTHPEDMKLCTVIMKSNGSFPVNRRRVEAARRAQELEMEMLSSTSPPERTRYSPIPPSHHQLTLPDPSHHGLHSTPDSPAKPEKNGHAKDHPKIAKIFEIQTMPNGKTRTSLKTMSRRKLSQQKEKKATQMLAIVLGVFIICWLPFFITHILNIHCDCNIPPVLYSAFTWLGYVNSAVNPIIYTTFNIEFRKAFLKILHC
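DiscoveRx PathHunter D2 beta-arrestin cells (2,100/well) attached overnight, then compound-stimulated 90 min at 37 C in HBSS/10 mM HEPES/0.1% Tween-20 buffer; beta-galactosidase complementation read by luminescence after 1 h at ambient temperature. Dopamine 57 uM final (EC100) as control.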
TRPML1 agonist = qHTS for Agonists of the Human Mucolipin Transient Receptor Potential 1 (TRPML1) | actives 0.12% (n = 410,000) | activation, % (concentration not given with the values) | TRPML1-expressing cells, Ca2+ dye fluorescence, FDSS; host cell line not named in the record; reference of the full effect not given here | AID 624414, 2012 | Mucolipin-1 (Homo sapiens), Q9GZU1; in the data active = activation above about 50%; inconclusive = about 30% to 50%; inactive = below about 30%; further: 0% is about no effect; the text of the record puts the active cut at 80%
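Tet-induced TRPML1-DL cells, 1,500 per well, cultured overnight, were loaded with a no-wash Ca2+ dye for 45–90 min. Calcium fluorescence was recorded on the FDSS for 110 s after compound addition, before the EC80 agonist (4 uM 54-4) was added.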
* = called active by the depositor; ? = inconclusive; . = no result given; & = joins results of further samples; [ ] = another dose, or the depositor's remark.

SMILES	TRPML1 inh	Six1-Eya2 blk	CtBP-E1A inh	PINK1 expr mod	D2 agonist	TRPML1 agonist
Cc1csc(NC(C)c2nc3cc(C(F)(F)F)ccc3n2CCCO)n1 (configuration not stated)	-22	-3	-1	2.7%	-1.0	-0.7
CC1CCN(C(=O)CN(c2ccc3c(c2)OCO3)S(C)(=O)=O)CC1	6	6	3	-6.5%[38.3 µM]	0.0	0.5
CCCn1cc2c(c1-c1ccc(C)cc1)c(=O)n(C)c(=O)n2C	11	-8	0	-1.1%	-0.4	-0.5
NC(=O)CC(NC(=O)c1ccccc1)c1ccc(NCc2ccccn2)c([N+](=O)[O-])c1 (configuration not stated)	-8	-22	-25	-0.2%	-1.7	0.3
Cc1ccc2nc(N3CCN(C)CC3)c(C#N)cc2c1	-16	0	-8	1.6%	-4.6	0.1
COc1cc(NC(=O)Cn2nc(C(F)(F)F)c3c2CCCC3)c(OC)cc1Cl	-17	.	.	5.1%	.	2.7
CC(C)c1cc(=O)oc2c3c4c(cc12)CCCN4CCC3	-12	30	7	.	-4.9	10
CCC(=O)Nc1ccc(S(=O)(=O)N2CCc3ccccc3C2)cc1	-4	1	0	5.0%	-0.1	0.3
O=C1NC(CCc2ccccc2)C(=O)N1Cc1cccc2ccccc12 (configuration not stated)	13	5	5	2.4%	-1.0	0.4
COc1cc(NC(=S)N2c3ccccc3CC2C)cc(OC)c1 (configuration not stated)	2	-6	3	0.7%	-3.7	-0.2
COc1ccc(-c2cc(C(F)(F)F)nc(SCC(=O)Nc3ccc(C(C)=O)cc3)n2)cc1	28	.	.	2.1%	.	-0.1
CCOCCn1c(CN2CCN(c3ccccc3)CC2)nc2c1c(=O)n(C)c(=O)n2C	-4	-11	-3	1.0%	3.7	-0.6
Cc1cc(C)c(NC(=O)COC(=O)/C=C/c2cccs2)c(C)c1	1	7	-1	-1.4%	2.1	-0.3
CCOc1cc(C(=O)Nn2cnnc2)cc(OCC)c1OCC	-1	-2	-5	-1.6%	0.5	0.4
O=C(COC(=O)c1ccc(F)c(S(=O)(=O)N2CCOCC2)c1)Nc1ccc(Cl)cn1	-6	12	6	-0.2%	-1.6	0.4
Cc1ccc2c(c1)C(=O)N1c3cc(C)c(C)cc3NC(=O)C1C(=O)N2 (configuration not stated)	.	6	6	3.0%	2.2	-0.6
O=C(c1ccc(CN2CCOCC2)cc1)N1CCN(c2ccccc2)CC1	19	-4	-10	-1.7%[38.3 µM]	0.1	0.5
O=C(Cc1cc(C(=O)O)c2ccccc2n1)Nc1ccccc1	-10	-1	-4	?	5.1	0.0
CCOP(=O)(OCC)C(Nc1cccc([N+](=O)[O-])c1)c1ccc(OC)cc1 (configuration not stated)	-3	-4	-13	0.4%	4.8	1.7
Cc1cc(N)ccc1N=Nc1c(C)n(C)n(-c2ccccc2)c1=O	2	-10	5	4.8%	-3.1	-0.3
O=C(NCCCN1CCOCC1)c1cc(-c2ccc(Cl)s2)nc2ccccc12	11	-3	-4	0.4%	-3.4	0.3
O=C(O)C1CCCN1C(=O)Nc1ccc(F)cc1 (configuration not stated)	8	-1	1	-2.9%	-4.1	-1.0
COc1ccc(C(=O)NNC2=Nc3cccc4cccc2c34)cc1	6	-1	-4	?	0.1	-0.4
C[C@H](CO)N1C[C@H](C)[C@H](CN(C)S(=O)(=O)c2cccc(C#N)c2)OCc2cnnn2CCCC1=O	-9	17	-8	3.4%	-4.5	-0.4
O=C(NCC(c1ccc(F)cc1)N1CCOCC1)c1ccc(C(=O)c2ccccc2)cc1 (configuration not stated)	-9	3	-3	2.0%	2.8	0.4
Cc1nn(-c2ccccc2)c2c1c(C)c(CCC(=O)N1CCOCC1)c(=O)n2C	2	0	1	0.7%	-3.6	-0.7
CCc1ccc(NC(=O)CCc2c(C)nc3nc(-c4cc(OC)cc(OC)c4)nn3c2C)cc1	5	.	.	1.5%	.	-0.7
CCC(Sc1nnc2c3ccccc3n(CC)c2n1)C(=O)Nc1sc2c(c1C#N)CCCC2 (configuration not stated)	1	-2	-1	?	-0.8	1.0
COc1cc(/C=N/N2CCN(C3c4ccccc4-c4ccccc43)CC2)ccc1O	4	-10	6	?	0.5	-0.1
Cc1nc(SCC(=O)NCc2ccco2)c2oc3ccccc3c2n1	-9	0	-6	0.8%	-0.8	-1.9
CS(=O)(=O)NC1CCN(Cc2ccccc2)CC1	?	1	2	3.7%[38.3 µM]	-1.2	-0.5
N#C/C(=C\c1cccc([N+](=O)[O-])c1)C(=O)Nc1cccnc1	-1	0	-5	8.6%	-17	-0.9
Cc1ccnc(SCCn2c(Br)nc3c2c(=O)[nH]c(=O)n3C)n1	-5	-1	1	-0.4%	-0.7	3.9
COc1cc(NC(=O)COc2ccccc2C)ccc1NC(=O)c1ccco1	27	-1	2	11%	4.7	0.6
COCCNc1nnc(SCC(=O)Nc2cc(C)on2)s1	-6	3	.	0.6%	-0.9	-1.1
CN1CCN2c3ncccc3Cc3ccccc3[C@@H]2C1	1	2	-1	4.3%	-1.5	-0.7
O=C(CCO)c1ccc(O)cc1	.	?	-2	0.0%	4.9	.
Cc1ccc(C2C(C#N)=C(N)Oc3n[nH]c(-c4cccs4)c32)cc1 (configuration not stated)	63	-5	0	2.6%	-2.1	4.1
COc1cc2oc(=O)cc(-c3ccc(-c4ccc(F)c(Cl)c4)cc3)c2c(OC)c1OC	6	4	8	0.9%	-2.5	-0.6
Cc1nn(C)cc1CNC(=O)c1cccc(F)c1	-22	-5	3	2.5%	-5.5	-0.4
N#Cc1ccc(NC(=O)Cn2cnc(S(=O)(=O)N3CCCCC3)c2)cc1	-5	3	1	-0.4%	-3.4	0.0
O=c1[nH]c(=S)[nH]c2nccnc12	12	5	-1	2.7%	-1.1	-0.1
CC1(C)Cc2c(sc3c2c(=N)n(Cc2ccco2)c(=O)n3CC(=O)Nc2ccccc2)CO1	22	-6	-16	-0.7%	-1.1	0.1
CN(Cc1nc(-c2ccccn2)no1)S(=O)(=O)c1ccc(Cl)cc1	19	2	5	-0.5%[38.3 µM]	-1.4	0.1
Cc1cccc(C)c1OCC(=O)NC(Cc1c[nH]c2ccccc12)C(=O)O (configuration not stated)	-13&-23	-5	0	2.5%&0.1%	3.4	0.6&2.2
COCCCNC(=O)CN(c1cc([N+](=O)[O-])ccc1OC)S(C)(=O)=O	0	7	2	0.9%	-1.9	-0.9
CC1=C(C(=O)OCc2ccccc2)C(c2ccco2)C2=C(CC(C)(C)CC2=O)N1 (configuration not stated)	29	8	5	2.2%	-4.0	0.5
CCCCn1c(N)c(N(CC(C)C)C(=O)COC(=O)C2(c3ccccc3)CC2)c(=O)[nH]c1=O	-10	1	6	1.5%	-1.3	0.0

At a glance, 10 of the compounds above.
SMILES	TRPML1 inh	Six1-Eya2 blk	CtBP-E1A inh	PINK1 expr mod	D2 agonist	TRPML1 agonist
CCCn1cc2c(c1-c1ccc(C)cc1)c(=O)n(C)c(=O)n2C	11	-8	0	-1.1%	-0.4	-0.5
NC(=O)CC(NC(=O)c1ccccc1)c1ccc(NCc2ccccn2)c([N+](=O)[O-])c1 (configuration not stated)	-8	-22	-25	-0.2%	-1.7	0.3
Cc1ccc2nc(N3CCN(C)CC3)c(C#N)cc2c1	-16	0	-8	1.6%	-4.6	0.1
COc1cc(NC(=O)Cn2nc(C(F)(F)F)c3c2CCCC3)c(OC)cc1Cl	-17	.	.	5.1%	.	2.7
CC(C)c1cc(=O)oc2c3c4c(cc12)CCCN4CCC3	-12	30	7	.	-4.9	10
CCC(=O)Nc1ccc(S(=O)(=O)N2CCc3ccccc3C2)cc1	-4	1	0	5.0%	-0.1	0.3
O=C1NC(CCc2ccccc2)C(=O)N1Cc1cccc2ccccc12 (configuration not stated)	13	5	5	2.4%	-1.0	0.4
COc1cc(NC(=S)N2c3ccccc3CC2C)cc(OC)c1 (configuration not stated)	2	-6	3	0.7%	-3.7	-0.2
COc1ccc(-c2cc(C(F)(F)F)nc(SCC(=O)Nc3ccc(C(C)=O)cc3)n2)cc1	28	.	.	2.1%	.	-0.1
CCOCCn1c(CN2CCN(c3ccccc3)CC2)nc2c1c(=O)n(C)c(=O)n2C	-4	-11	-3	1.0%	3.7	-0.6

Next results.
SMILES	TRPML1 inh	Six1-Eya2 blk	CtBP-E1A inh	PINK1 expr mod	D2 agonist	TRPML1 agonist
Cc1cc(C)c2nc(-n3nc(C)cc3N)cc(C)c2c1	-4	-2	-1	5.2%	-1.0	0.3
O=S(=O)(c1ccccc1C(F)(F)F)N1CCN(CC(O)COc2ccccc2F)CC1 (configuration not stated)	0	-2	5	4.5%	2.9	0.5
Cc1ccc(Cl)c2c1NC(=O)C2(O)CC(=O)c1ccc(Br)cc1 (configuration not stated)	-9	20	0	0.9%	-4.7	0.2
Cc1[nH]c2ccccc2c1-c1csc(NC(=O)CSCCO)n1	27	-15	-17	4.9%	-7.1	0.6
COc1ccccc1NC(=O)Nc1ccccc1C#N	-1	11	8	-0.4%	1.4	0.0
O=C(CSc1nnc(-c2cccnc2)n1Cc1ccccc1)NCc1ccccc1	10	0	2	-1.4%	-1.4	-1.1
CCOC(=O)Cn1nc(C)cc1NC(=O)c1cc(OC)c(OC)c(OC)c1	-15	-1	.	3.3%	-2.4	-0.2
CCOc1cc(/C=N/NC(=O)c2ccc(CN3CCOCC3)cc2)ccc1OC	-5	-9	-25	-1.1%	4.5	1.8
CC(C)CCNC(=O)C1CC(c2ccccc2[N+](=O)[O-])=NO1 (configuration not stated)	1	1	8	-0.1%	-0.8	0.2
CCCCNC(=O)C1(C)CCCCN1C(=O)c1c(F)ccc(C)c1F (configuration not stated)	.	8	13	1.1%	-3.3	-0.5
CC1=C(C(=O)OC(C)C)C(c2cncc(-c3ccc(F)cc3)c2)C(C#N)=C(N)O1 (configuration not stated)	-3	-4	-24	-1.2%	0.9	0.4
CC(=NCC1CCCO1)c1c(O)[nH]c(=O)[nH]c1=O (configuration not stated)	6	7	-3	1.6%	-0.2	0.1
O=C1C(NS(=O)(=O)c2cccs2)=C(N2CCN(Cc3ccccc3)CC2)C(=O)c2ccccc21	-18	-72*	.	-1.4%	7.2	0.4
COc1ccc(NC(=O)c2sc(=O)n(Cc3ccccc3C#N)c2C)cc1OC	.	-8	-10	3.0%	8.9	-0.9

Compounds were not picked by outcome; overall some 1% were active at least once.
